AF4-AF9 inh – inhibitors of AF4 peptide binding to AF9, primary screen, biochemical, AlphaScreen, biotin-AF4 peptide, FLAG-AF9, single point; 350,000 tested, 0.47% active; Protein AF-9 (Homo sapiens), P42568; inhibition, % at 10 µM;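 active means every replicate reaching a set inhibition limit, whatever the replicate mean, cut at about 25% in these data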;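 further: 0% = plate neutral control median and 100% = total signal loss; the record names both 10 and 1 µM as test concentration; the first replicate is given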
Target sequence (P42568 whole entry, looked up): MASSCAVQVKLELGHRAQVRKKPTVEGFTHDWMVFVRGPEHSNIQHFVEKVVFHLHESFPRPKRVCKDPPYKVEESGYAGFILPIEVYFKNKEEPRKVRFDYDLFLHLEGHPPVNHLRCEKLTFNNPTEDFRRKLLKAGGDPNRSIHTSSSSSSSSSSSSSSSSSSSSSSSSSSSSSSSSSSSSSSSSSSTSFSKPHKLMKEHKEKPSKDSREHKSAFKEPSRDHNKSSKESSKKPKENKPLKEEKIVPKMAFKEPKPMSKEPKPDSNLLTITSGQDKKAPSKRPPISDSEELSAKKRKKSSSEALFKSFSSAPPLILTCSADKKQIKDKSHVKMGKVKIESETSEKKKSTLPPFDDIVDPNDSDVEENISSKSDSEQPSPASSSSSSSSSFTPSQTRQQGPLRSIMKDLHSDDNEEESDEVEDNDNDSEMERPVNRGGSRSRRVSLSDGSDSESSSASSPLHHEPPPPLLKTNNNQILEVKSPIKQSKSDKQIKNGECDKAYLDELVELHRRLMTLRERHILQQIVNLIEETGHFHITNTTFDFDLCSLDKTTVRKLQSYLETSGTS
* hit, by the source's call; & = joins results of further samples.

SMILES | AF4-AF9 inh
C[C@@H]1CN([C@H](C)CO)S(=O)(=O)c2ccc(-c3ccncc3)cc2O[C@@H]1CN(C)C(=O)C1CC1 | -0.6
CN(C)CC(=O)Nc1ccc2c(c1)[C@@H]1C[C@H](CC(=O)NC3CCCCC3)O[C@@H](CO)[C@@H]1O2 | -2.0
Cc1ccc(S(=O)(=O)N(C)C[C@@H]2Oc3ncc(C#CC4(O)CCCC4)cc3C(=O)N([C@H](C)CO)C[C@@H]2C)cc1 | 0.2
COc1ccc2c3c([nH]c2c1)[C@H](CO)N(C)CC31CCN(C(=O)CN(C)C)CC1 | 3.2
COc1ccc(NC(=O)N(C)C[C@H]2Oc3c(cccc3N(C)C)C(=O)N([C@@H](C)CO)C[C@@H]2C)cc1 | -1.1
C[C@@H]1CN([C@H](C)CO)C(=O)c2cc(NC(=O)Nc3ccc4c(c3)OCO4)ccc2O[C@H]1CN(C)CC1CCCCC1 | 11
CC(C)C[C@@H](CN1CCCC1CN1C(=S)NC[C@@H]1Cc1ccccc1)N1C[C@H](Cc2ccc(O)cc2)N(CCc2ccccc2)C1=S (stereo not given in full) | 0.4
Cc1cc(Cl)ccc1OCC(=O)OCC(=O)NC1CCS(=O)(=O)C1 (stereo not given) | -2.5
C[C@@H]1CN([C@H](C)CO)C(=O)c2cc(NS(=O)(=O)c3cccs3)ccc2O[C@H]1CN(C)C(=O)Nc1ccc2c(c1)OCO2 | 0.8
C[C@@H](O)C#Cc1ccc2c(c1)O[C@H](CN(C)C(=O)CN(C)C)[C@@H](C)CN([C@@H](C)CO)S2(=O)=O | -2.9
COc1ccc(NC(=O)Nc2ccc3c(c2)C(=O)N([C@@H](C)CO)C[C@H](C)[C@H](CN(C)Cc2ccc(C(=O)O)cc2)OCCCC[C@H](C)O3)cc1 | 3.7
COc1ccc(C(O)c2nc(-c3ccoc3)cs2)cc1 (stereo not given) | 3.3
COc1ccc(S(=O)(=O)N(C)C[C@@H]2Oc3cc(-c4ccccc4OC)ccc3S(=O)(=O)N([C@@H](C)CO)C[C@@H]2C)cc1 | 2.7
C[C@H](CO)N1C[C@H](C)[C@H](CN(C)C)Oc2cc(C#Cc3cccnc3)ccc2S1(=O)=O | -1.6
Cc1noc(C)c1S(=O)(=O)N(C)C[C@@H]1Oc2ccc(NC(=O)Cn3cnnn3)cc2CC(=O)N([C@H](C)CO)C[C@H]1C | -1.4
CC(C)NC(=O)Nc1ccc2c(c1)CC(=O)N([C@@H](C)CO)C[C@@H](C)[C@@H](CN(C)C(=O)NC1CCCCC1)O2 | 0.6
C[C@H]1CN([C@@H](C)CO)C(=O)c2c(c3ccccc3n2C)-c2ccccc2CO[C@H]1CN(C)Cc1ccccc1C(F)(F)F | 0.6
CCC(=O)N[C@H]1CC[C@@H](CC(=O)OC)O[C@@H]1CO | 0.5
CCc1nc2c(OCCC3CCCCC3)cccn2c1N(C)C(=O)CC(C)C | 2.9
O=C(C[C@@H]1C=C[C@@H](NC(=O)CCN2CCCCC2)[C@H](CO)O1)NCc1ccc(Cl)c(Cl)c1 | 1.4
CC(C)NC(=O)NCC[C@H]1CC[C@H](NC(=O)CN(C)C)[C@H](CO)O1 | 1.5
C[C@H](CO)N1C[C@H](C)[C@@H](CN(C)S(=O)(=O)c2ccc(F)cc2)Oc2c(NC(=O)c3ccc(-c4nccs4)cc3)cccc2C1=O | -4.2
Cc1ccc(F)c(S(=O)(=O)NC(=O)C2(C)CCN2C(=O)Cc2ccc(C(C)(C)C)cc2)c1 (stereo not given) | -0.6
Cc1noc(C)c1S(=O)(=O)Nc1ccc2c(c1)CC(=O)N([C@H](C)CO)C[C@H](C)[C@H](CN(C)Cc1ccc(C(=O)Nc3ccccc3N)cc1)O2 | 1.6
Cc1ccc(-c2ccc(C3[C@@H]4CN(Cc5cccc(F)c5)C[C@H]3N4)cc2)cc1 (stereo not given in full) | 7.3&12

(listing goes on)
SMILES | AF4-AF9 inh
C[C@H]1CN([C@@H](C)CO)C(=O)Cc2cc(NS(=O)(=O)c3ccccc3)ccc2O[C@@H]1CN(C)Cc1ccc(-c2ccccc2)cc1 | -1.1
C[C@H]1CN([C@@H](C)CO)C(=O)c2cccc(NS(C)(=O)=O)c2O[C@H]1CN(C)S(C)(=O)=O | -3.3
COCCN(C[C@@H]1[C@@H](c2ccccc2)[C@@H](CO)N1C(C)=O)C(=O)c1ccncc1 | -1.2
C[C@H](CO)N1C[C@H](C)[C@@H](CN(C)C)Oc2ccc(NC(=O)Cc3ccccc3)cc2C1=O | -1.5
COc1ccc(CC(N)c2csc(Nc3cc(NCCCO)ncn3)n2)cc1 (stereo not given) | 6.1
CCC(=O)N1CC[C@@H]2[C@H]1c1cc(-c3ccc(F)cc3)ccc1N[C@@H]2CO | -6.1
O=C(C[C@@H]1CC[C@@H]2[C@H](COC[C@H](O)CN2Cc2ccc(Oc3ccccc3)cc2)O1)N1CCOCC1 | 0.6
COc1ccc2c3c([nH]c2c1)[C@@H](CO)N(C(C)=O)CC31CN(C(=O)Nc2ccc(F)cc2)C1 | 2.5
COc1cc(O)c2c(c1)oc(=O)c1c3cc(O)c(O)cc3oc21 | 4.1
O=C(c1cccc(F)c1)N1CC(=O)N2[C@H](C1)[C@H](c1ccc(/C=C/c3ccccc3)cc1)[C@@H]2CO | 12
CCN(CC(=O)Nc1ccc(NC(C)=O)cc1)C(=O)c1ccc(S(=O)(=O)N2CCCC2)cc1 | 0.3
C[C@H]1CCCCO[C@H](CN(C)C(=O)C2CCCCC2)[C@@H](C)CN([C@@H](C)CO)C(=O)c2cc(NC(=O)c3ccccc3)ccc2O1 | -3.5
C[C@@H]1CN([C@@H](C)CO)C(=O)c2cccc(NS(=O)(=O)c3ccc(Cl)cc3)c2O[C@@H]1CN(C)C(=O)Nc1cccc2ccccc12 | 1.8
CC(C)CC#Cc1ccc([C@H]2[C@@H](CO)N3CCCCN(S(=O)(=O)c4ccc(F)cc4)C[C@H]23)cc1 | 4.1
C[C@@H]1CN([C@@H](C)CO)C(=O)c2cc(C3=CCCC3)cnc2O[C@H]1CN(C)Cc1ccccn1 | -5.2
CC(=O)N(C)C[C@H]1Oc2ncc(-c3ccccc3C)cc2C(=O)N([C@@H](C)CO)C[C@@H]1C | -1.0
O=C(C[C@@H]1CC[C@@H]2[C@H](COC[C@@H](O)CN2C(=O)C2CC2)O1)NCc1ccncc1 | -3.7
C[C@@H]1CCCCO[C@H](CN(C)S(=O)(=O)c2ccccc2)[C@H](C)CN([C@H](C)CO)C(=O)c2cc(N(C)C)ccc2O1 | 9.5
O=C(C[C@H]1CC[C@@H]2[C@H](COC[C@H](O)CN2Cc2ccc(Cl)cc2)O1)Nc1nccs1 | 3.1
COc1ccc(S(=O)(=O)N(C)C[C@H]2Oc3c(NC(=O)NC(C)C)cccc3C(=O)N([C@@H](C)CO)C[C@H]2C)cc1 | -2.4
C[C@H](CO)N1C[C@H](C)[C@H](CN(C)S(=O)(=O)c2cccs2)Oc2ccc(NS(C)(=O)=O)cc2C1=O | -0.7
CCCCCCCCN1C(=O)[C@H](CC(=O)NCCCOCCCC)C[C@@]2(C(=O)OC)CC(C)(C)CC=C12 | -2.0
CCCCc1c(-c2cccc(Cl)c2)ncn1CCc1ccccc1OC | -3.6
C[C@H](CO)N1C[C@H](C)[C@@H](CN(C)Cc2ccc(C(=O)Nc3ccccc3N)cc2)Oc2ccc(NC(=O)Nc3cccc4ccccc34)cc2C1=O | -1.1
O=S(=O)(c1ccccc1F)N1C[C@@H]2N[C@H](C1)C2c1ccc(/C=C/c2ccccc2)cc1 (stereo not given in full) | 0.5&4.1

More entries follow:
SMILES | AF4-AF9 inh
CCN(CC)C(=O)[C@H]1C[C@H](CC(=O)NCCCn2ccnc2)C(=O)N2CCc3c([nH]c4cc(-c5ccco5)ccc34)[C@]12C | 5.0
OC[C@@H]1CN(Cc2ccc(-c3ccccc3)cc2)C[C@H](n2cnc3c(NCc4ccc(F)cc4)ncnc32)O1 | -0.7
O=C(NC1CCC1)[C@H]1N[C@H]2c3ccc(-c4cccc(F)c4)c(=O)n3C[C@H]2[C@@H]1CO | -4.5
OC[C@H]1[C@H](c2ccc(C#Cc3cccnc3)cc2)[C@H]2CN(Cc3ccccc3F)CCCCN21 | 3.3
CO[C@H](CN(C)S(=O)(=O)c1ccc(Cl)cc1)[C@H](C)CN(Cc1ccccc1Cl)[C@@H](C)CO | -20
C[C@@H]1CN([C@H](C)CO)C(=O)c2cc(/C=C/c3ccccc3)cnc2O[C@@H]1CN(C)C(=O)c1ccc2c(c1)OCO2 | 5.2
C[C@H](CO)N1C[C@H](C)[C@@H](CN(C)S(=O)(=O)c2ccc(Cl)cc2)Oc2ccc(NC(=O)NC3CCCCC3)cc2C1=O | -0.9
C[C@H](CO)N1C[C@H](C)[C@H](CN(C)S(C)(=O)=O)Oc2ccc(NC(=O)Nc3ccc4c(c3)OCO4)cc2C1=O | 1.9
COc1ccc(NC(=O)N(C)C[C@@H]2Oc3ccc(NC(=O)CCC(F)(F)F)cc3CC(=O)N([C@@H](C)CO)C[C@H]2C)cc1 | 1.3
CO[C@H]1CC[C@@H]2CCN(C)C(=O)CCCN(C)C(=O)c3cc(C#N)ccc3OC[C@@H]1O2 | -1.9
C[C@@H]1CCCCO[C@H](CN(C)S(=O)(=O)c2cn(C)cn2)[C@H](C)CN([C@@H](C)CO)C(=O)c2cc(NC(=O)c3ccncc3)ccc2O1 | -2.1
C[C@@H]1CN([C@@H](C)CO)C(=O)c2cc(C#Cc3ccccc3F)cnc2O[C@@H]1CN(C)C(=O)Cc1cccnc1 | -1.1
C[C@@H]1CN([C@@H](C)CO)S(=O)(=O)c2ccc(C#Cc3cccc(F)c3)cc2O[C@H]1CN(C)S(=O)(=O)c1ccccc1F | -1.7
C[C@H]1CN([C@@H](C)CO)C(=O)CCCn2cc(nn2)CO[C@@H]1CN(C)Cc1cccc(C(F)(F)F)c1 | -1.5
Cc1noc(C)c1NC(=O)N[C@H]1CC[C@H](CCNC(=O)C2CCCCC2)O[C@@H]1CO | -1.7
C[C@@H]1CN([C@@H](C)CO)C(=O)c2cccc(NC(=O)Nc3ccc(C(F)(F)F)cc3)c2O[C@@H]1CN(C)C | 1.6
C[C@@H]1CN([C@H](C)CO)C(=O)c2cc(NC(=O)c3ccncc3)ccc2O[C@H]1CN(C)Cc1ccc(Oc2ccccc2)cc1 | 13
CCCN1[C@H](C(=O)NCc2cccc(OC)c2)[C@@H](CO)[C@@H]2Cn3c(ccc(C4=CCCC4)c3=O)[C@@H]21 | 1.1
C[C@H](CO)N1C[C@H](C)[C@@H](CN(C)Cc2cccc(F)c2)OCc2ccccc2-c2c(n(C)c3ccccc23)C1=O | 10
C/C=C/c1ccc([C@@H]2[C@H](CO)N(C(C)=O)C23CN(S(C)(=O)=O)C3)cc1 | -1.2
COCCNC(=O)C1(C)CCN(C(=O)c2nc(C)oc2C)C1 (stereo not given) | -2.8
O=C(C[C@H]1C[C@H]2c3cc(NC(=O)Cc4ccncc4)ccc3O[C@H]2[C@@H](CO)O1)NCc1cccnc1 | -0.4
COc1ccc(NC(=O)N2CC3(C2)CN(CC2CC2)[C@H](CO)c2c3c3ccc(OC)cc3n2C)cc1 | -1.5
O=C(C1CCOCC1)N1[C@@H](CO)[C@@H](c2ccccc2)C12CN(CCC(F)(F)F)C2 | 0.4
CN(C)C(=O)c1cccc(-c2ccc([C@H]3[C@H](CO)N4CCCCN(C(=O)C5CCCC5)C[C@@H]34)cc2)c1 | -2.7

A section from the list above, as a working copy:
SMILES | AF4-AF9 inh
CCN(CC)C(=O)[C@H]1C[C@H](CC(=O)NCCCn2ccnc2)C(=O)N2CCc3c([nH]c4cc(-c5ccco5)ccc34)[C@]12C | 5.0
OC[C@@H]1CN(Cc2ccc(-c3ccccc3)cc2)C[C@H](n2cnc3c(NCc4ccc(F)cc4)ncnc32)O1 | -0.7
O=C(NC1CCC1)[C@H]1N[C@H]2c3ccc(-c4cccc(F)c4)c(=O)n3C[C@H]2[C@@H]1CO | -4.5
OC[C@H]1[C@H](c2ccc(C#Cc3cccnc3)cc2)[C@H]2CN(Cc3ccccc3F)CCCCN21 | 3.3
CO[C@H](CN(C)S(=O)(=O)c1ccc(Cl)cc1)[C@H](C)CN(Cc1ccccc1Cl)[C@@H](C)CO | -20
C[C@@H]1CN([C@H](C)CO)C(=O)c2cc(/C=C/c3ccccc3)cnc2O[C@@H]1CN(C)C(=O)c1ccc2c(c1)OCO2 | 5.2
C[C@H](CO)N1C[C@H](C)[C@@H](CN(C)S(=O)(=O)c2ccc(Cl)cc2)Oc2ccc(NC(=O)NC3CCCCC3)cc2C1=O | -0.9
C[C@H](CO)N1C[C@H](C)[C@H](CN(C)S(C)(=O)=O)Oc2ccc(NC(=O)Nc3ccc4c(c3)OCO4)cc2C1=O | 1.9
COc1ccc(NC(=O)N(C)C[C@@H]2Oc3ccc(NC(=O)CCC(F)(F)F)cc3CC(=O)N([C@@H](C)CO)C[C@H]2C)cc1 | 1.3
CO[C@H]1CC[C@@H]2CCN(C)C(=O)CCCN(C)C(=O)c3cc(C#N)ccc3OC[C@@H]1O2 | -1.9
C[C@@H]1CCCCO[C@H](CN(C)S(=O)(=O)c2cn(C)cn2)[C@H](C)CN([C@@H](C)CO)C(=O)c2cc(NC(=O)c3ccncc3)ccc2O1 | -2.1

The results go on.
SMILES | AF4-AF9 inh
O=C(NCC[C@@H]1CC[C@H](NC(=O)C2CCOCC2)[C@H](CO)O1)c1ccc(F)cc1 | -6.2
COc1ccc(S(=O)(=O)N(C)C[C@H]2Oc3ccc(NC(=O)CCN4CCOCC4)cc3C(=O)N([C@H](C)CO)C[C@H]2C)cc1 | -2.4
O=C(NCC1CC1)[C@@H]1[C@@H](CO)[C@@H]2Cn3c(ccc(C4=CCCC4)c3=O)[C@@H]2N1Cc1ccccc1F | 3.2
C[C@@H]1CCCCO[C@H](CN(C)C(=O)c2ccncc2)[C@H](C)CN([C@@H](C)CO)C(=O)c2cc(NS(=O)(=O)c3ccc(F)cc3)ccc2O1 | -1.2
O=C(NC[C@H]1[C@H](c2ccccc2)[C@H](CO)N1Cc1ccccn1)C1CC1 | -1.7
O=C(C[C@@H]1C[C@@H]2c3cc(NS(=O)(=O)c4ccc(F)cc4)ccc3O[C@@H]2[C@H](CO)O1)NCc1ccc(-c2ccccc2)cc1 | -0.9
O=C(C1CCOCC1)N1CC(=O)N2[C@H](CO)[C@H](c3ccc(/C=C/c4ccccc4)cc3)[C@@H]2C1 | 1.0

Screening results (PubChem)

A portion of the library; rates above refer to the full screens.
